Compound activity from PubChem BioAssay.
ClpP mod: qHTS Assay for Activators of ClpP | ATP-dependent Clp protease proteolytic subunit (Bacillus subtilis (strain 168)), P80244 | purified B. subtilis ClpP, FRET peptide cleavage, 20 min | Potency, µM (doses to about 57.5 µM), without a hit: at the top dose activity change, negative = active | 1.9% of 340,000 active | AID 651965, 2013; active = well fitted falling curve with a large enough effect; inconclusive = small, poorly fitted or top-dose-only effect; inactive = no such curve, though single readings can be large or run the other way; also: potency is read from the fitted curve at half-maximal effect; the source files actives as falling curves though it sought activators and does not explain the sign; nearly all actives have a fitted effect of over 65% in size; many hits overshoot -100%
Target sequence (P80244 whole entry, looked up): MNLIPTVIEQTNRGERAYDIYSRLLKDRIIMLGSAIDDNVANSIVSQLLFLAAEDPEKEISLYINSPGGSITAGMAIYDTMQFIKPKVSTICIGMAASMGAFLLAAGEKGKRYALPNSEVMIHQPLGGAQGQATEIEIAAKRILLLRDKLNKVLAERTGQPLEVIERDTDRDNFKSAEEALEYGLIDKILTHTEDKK
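Purified B. subtilis ClpP, 10 microg/mL final in Tris/HCl pH8 with KCl, BSA, glycerol and Tween-20, cleaved an Abz/nitrotyrosine-quenched decapeptide. Fluorescence (ex 320, em 430) was read at 0 and 20 min at room temperature. Delta was normalized to 5.8 microM ADEP and DMSO/no-enzyme controls.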
TRPML1 ag: qHTS for Agonists of the Human Mucolipin Transient Receptor Potential 1 (TRPML1); Mucolipin-1 (Homo sapiens), Q9GZU1; TRPML1-expressing cells, Ca2+ dye fluorescence, FDSS; host cell line not named in the record; reference of the full effect not given here; activation, % (no concentration beside the values); 0.12% of 410,000 active; in the data active = activation above about 50%; inconclusive = about 30% to 50%; inactive = below about 30%; also: 0% is about no effect; the text of the record puts the active cut at 80%
Target sequence (Q9GZU1 whole entry, looked up): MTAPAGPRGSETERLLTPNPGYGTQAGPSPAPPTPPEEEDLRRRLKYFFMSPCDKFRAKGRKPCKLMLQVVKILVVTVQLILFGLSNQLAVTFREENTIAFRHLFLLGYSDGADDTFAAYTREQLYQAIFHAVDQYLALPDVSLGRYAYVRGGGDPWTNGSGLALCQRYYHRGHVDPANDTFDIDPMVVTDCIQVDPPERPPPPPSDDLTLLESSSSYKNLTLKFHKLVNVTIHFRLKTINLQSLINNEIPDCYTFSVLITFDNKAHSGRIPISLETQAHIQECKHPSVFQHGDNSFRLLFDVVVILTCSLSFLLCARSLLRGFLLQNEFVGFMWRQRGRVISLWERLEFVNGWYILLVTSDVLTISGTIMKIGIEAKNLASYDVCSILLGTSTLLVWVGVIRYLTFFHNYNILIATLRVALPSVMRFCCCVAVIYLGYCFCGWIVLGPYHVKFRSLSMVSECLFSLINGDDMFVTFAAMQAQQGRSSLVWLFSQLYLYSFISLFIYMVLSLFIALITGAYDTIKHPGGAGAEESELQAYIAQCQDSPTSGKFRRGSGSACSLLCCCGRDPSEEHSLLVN
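In this qHTS format, compounds were pin-transferred onto Ca8-dye-loaded TRPML1-DL cells induced with Tet overnight, and intracellular Ca2+ fluorescence was recorded kinetically for 110 s after a 10 s baseline. A subsequent 4uM final 54-4 (EC80) addition followed by a second 110 s read served as the antagonist phase.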
TRPV1 PAM: HTS Assay for Compounds that Act as Potentiators of the Vanilloid Receptor 1. 0.02% of 320,000 active. potentiation, % at 8.33 µM. Transient receptor potential cation channel subfamily V member 1 (Homo sapiens), Q8NER1. TRPV1-expressing cells, Fluo-8 calcium influx, capsaicin EC20 potentiation; host cell line not named in the record; control for the full effect not named in the record. AID 540277, 2011; active means potentiation above 80%; inconclusive means 30% to 80%; inactive means below 30%; also: 0% is about no effect
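Fluo-8 calcium influx in TRPV1-expressing cells, kinetic read (ex 480/em 520 nm). Compound added and read 3 min for agonist activity, followed by capsaicin at EC20 final and 2 min further read for enhancement.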
TRPML1 inh: qHTS for Inhibitors of the Human Mucolipin Transient Receptor Potential 1 (TRPML1) | Mucolipin-1 (Homo sapiens), Q9GZU1 | TRPML1-inducible cells, Ca2+ dye fluorescence, FDSS; active compounds read low; inhibition of EC80 agonist-evoked calcium signal | activity change, negative = inhibition, % (test concentration not listed) | 0.02% of 390,000 active; in the data active means activity change below about -50%; inconclusive means about -30% to -50%; inactive means above about -30%;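 also: stimulus is agonist 54-4 at its EC80 concentration; % is scaled to controls: 0 for no effect and ±100 for the full control effect; compound concentration not given in the record; the text of the record puts the active cut at -80%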
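Calcium fluorescence in TRPML1-DL cells induced overnight with Tet: a 110 s read after compound pin addition, then a 110 s antagonist read after challenge with 54-4 at 4 uM final (EC80).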
Sfp inh: qHTS Assay for Inhibitors of Bacillus subtilis Sfp phosphopantetheinyl transferase (PPTase) | 3.5% of 310,000 active | AID 1490, 2009 | Biochemical Sfp PPTase activity, qHTS | Potency, µM, for inactives: max response, negative = inhibition, hits mostly inhibitors | 4'-phosphopantetheinyl transferase ffp (Bacillus subtilis), Q9F4F7; active = well fitted inhibition curve with a large enough effect; inconclusive = small, poorly fitted or top-dose-only effect, or another doubt; inactive = no such curve, though single readings can be large or run the other way;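 also: the enzyme is Sfp with the accession as filed and its product quenches rhodamine fluorescence; potency is read from the fitted curve at half-maximal effect; 0% = enzyme reaction without inhibitor and -100% = no enzyme wells; top concentration of the series not given in the record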
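Fluorescence-quenching assay with 15 nM Sfp, 5 uM rhodamine-CoA and 12.5 uM BHQ-2-labelled ybbR peptide in pH 7.6 Hepes/MgCl2 buffer. Enzyme was pre-incubated with compound for 15 min at room temperature. Rate was taken from the 30-min fluorescence change (525/598 nm).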
PINK1 expr mod: A Quantitative High throughput Screen to Identify Chemical Modulators of PINK1 Expression; Potency, µM (top dose mostly 76.6 µM), for the others: at the highest dose activation (PINK1 increase), usual class: activators; AID 624263, 2012; PINK1 immunofluorescence, high-content cytometry, 24 h; 0.2% of 410,000 active; active = well fitted activation curve with a large enough effect; inconclusive = small, poorly fitted or top-dose-only effect; inactive = flat fitted curve, though single readings scatter; cell line not stated here;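 also: potency is read from the fitted curve at half-maximal effect; % of control where 0% means no effect; nearly all actives have a fitted effect of over 65% in size; a mitochondrial uncoupler was the plate control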
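PINK1 protein level read as immunofluorescence by microplate cytometer in a fixed, stained stable cell line after 24 h exposure to five compound concentrations, with CCCP as control.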
Menin MLL FP FL: qHTS Assay for Inhibitors Targeting the Menin-MLL Interaction in MLL Related Leukemias: Competition With Fluorescein Labeled MLL-derived Peptide; Fluorescence polarization, fluorescein-MLL peptide displacement from menin; FP activity change, % at 61.4 µM; 290,000 tested, under 10 active; inconclusive = falling polarisation curve, or a change in total fluorescence; inactive = total fluorescence flat and polarisation flat or rising; no compound was filed as active; the % refers to the polarisation; negative = inhibition;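 also: % of control where 0% means no effect; inhibitors lower the polarisation; unlabelled MLL peptide was the positive control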
Numbers without * were called inactive; ? = inconclusive; · = not tested or not shown; & = joins results of further samples; [ ] = remark or other dose.

SMILES	ClpP mod	TRPML1 ag	TRPV1 PAM	TRPML1 inh	Sfp inh	PINK1 expr mod	Menin MLL FP FL
Cc1nn(-c2ccccc2)c(Cl)c1/C=C1/C(=N)N2N=C(C(C)C)SC2=NC1=O	0.2%	-0.7	-1	46	3%	-0.4%	11
CCOC(=O)C1CCN(C(=O)CSCc2nc(-c3ccc(OCC)cc3)oc2C)CC1	28µM*	0.0	-12	-4	16%	1.2%	1.0
CCCn1c(N)c(C(=O)CN(C)CC(=O)Nc2ccc(F)cc2)c(=O)[nH]c1=O	0.8%	1.1	-4	3	·	-0.6%	·
CN(CCCC(=O)Nc1ccc(Br)cc1F)S(=O)(=O)c1ccccc1	0.4%	-0.6	-16	6	-13%	-2.3%	-0.5
COc1ccc(-c2csc3nc(-c4ccccc4C)oc(=O)c23)cc1OC	-1.1%	-0.4	·	4	·	4.8%	·
CC(C)(C)NC(=O)COC(=O)c1ccc(F)cc1Cl	·	0.1	-10	9	11%	2.3%	-1.0
CCOC(=O)c1ccc(NC(=O)CCc2nnc3ccc(N4CCN(C)CC4)nn23)cc1	-4.0%	-0.6	-14	-8	6%	-1.0%	0.7
COc1ccc(OC)c(NC(=O)c2c(NCc3ccc(N(C)C)cc3)sc3c2CCCC3)c1	0.8%	0.5	·	-3	·	3.1%	·
CC(CCC(=O)O)C1CCC2C3CC(O)[C@@H]4CC(O)CC[C@]4(C)C3CC[C@@]12C (stereo partly drawn)	·	·	·	·	?	-1.8%	-1.3
O=C(Nc1ccc(SC(F)F)cc1)c1cc(-c2ccncc2)nc2ccccc12	-5.4%	-0.7	18	-6	·	26%	·
O=C1CC(N2CCC(O)(c3ccc(Br)cc3)CC2)C(=O)N1c1ccc(Cl)cc1 (stereo not drawn)	-3.5%	0.1	10	-6	-5%	-2.7%	3.2
CCOC(=O)c1ccc2ncc(C(=O)OCC)c(Nc3ccc(N4CCOCC4)cc3)c2c1	1.3%	1.5	-10	-5	50µM*	-2.1%	2.7
CC(C)Cc1nnc(NC(=O)CCC(=O)N2CCCCC2)s1	-1.7%	0.2	2	1	22%	-0.1%	0.9
Cc1sc2ncnc(SCC(=O)Nc3ccc(CN4CCCC4)cc3)c2c1C	-1.8%	0.3	19	4	·	2.6%	·
Nc1c(-c2cccc(Cl)c2)cnn1-c1cccc([N+](=O)[O-])c1	-1.8%	-0.2	·	10	-5%	1.6%	13
CN1CCCC(OC(=O)c2cc(Br)ccc2Cl)C1 (stereo not drawn)	-0.4%	-0.4	26	2	-8%	0.4%	-1.4
Cc1ccc(C)c(OCCC(=O)NNC(=O)c2ccccc2F)c1	·	1.6	2	-12	·	-2.3%	·
CC1CCCCN1CCNC(=O)c1cc2c(-c3ccccc3F)nn(C)c2s1 (stereo not drawn)	5.2%	-0.4	6	-3	1%	0.6%	2.7
Cc1cn2c(=O)c(S(=O)(=O)NCc3ccc(F)cc3)c(C)nc2s1	32µM*	-0.6	·	5	·	0.9%	·
COc1cc(NC(=O)C(CCS(C)(=O)=O)N2Cc3ccccc3C2=O)cc(OC)c1OC (stereo not drawn)	-3.4%	-0.4	·	0	·	-0.3%	·
CCc1ccc(C(=O)COC(=O)c2cc([N+](=O)[O-])ccc2NCCO)cc1	-0.1%	0.7	6	2	7%	-0.8%	1.6
CC1CC(C)CN(CCCNS(=O)(=O)c2cc(Br)cc3c2N(C(=O)C2CC2)CC3)C1 (stereo not drawn)	·	2.6	-1	-12	9%	0.0%	3.6
CCOC(=O)c1c(C)[nH]c(CCC(=O)Nc2ccc(Cl)cc2C)c1C	-0.9%	5.3	·	-4	·	-0.4%	·
CCOC(=O)CSc1cc(-c2ccccc2)nc2ncnn12	·	0.0	-1	4	-2%	10%	0.5
CCC(C)(C(=O)NC1CCCCC1)N(C(=O)C1CCC(=O)N1)c1ccc(C)cc1 (stereo not drawn)	4.5%	-0.1	7	5	12%	0.0%	-0.7
COc1ccc(S(=O)(=O)NCc2ccccn2)cc1Br	·	0.1	-3	8	4%	-0.6%	-1.6
COc1cc(OC)c(NC(=O)c2ccc(-n3cnc4cccnc43)cc2)cc1Cl	-16%	0.7	·	-15	·	0.8%	·
CCOC(=O)CNC(=O)CSc1nnc(NC(=O)c2ccc(S(=O)(=O)N3CCOCC3)cc2)s1	0.7%	1.1	-5	11	6%	3.9%	·
CCc1ccc(NC(=O)Cn2c(=O)n(Cc3ccco3)c(=O)c3oc4ccccc4c32)cc1	-0.7%	0.9	·	18	·	0.8%	·
CCc1cccc(C)c1NC(=O)CSc1ncn[nH]1	-1.1%	0.5	2	-8	20%	-1.0%	-0.6
O=C(Nc1cc2c3c(c1)C1CCCC1CN3CC1CCCC21)c1ccccc1 (stereo not drawn)	-25%	1.3	-20	8	-16%	2.8%	-2.2
O=C(Nc1ccccc1N1CCCCC1)c1ccc(N2C(=O)c3ccccc3C2=O)cc1	-3.1%	1.3	6	17	-10%	-0.5%	1.4
CCCC(=O)OC/C(O)=C(\C#N)c1nc2ccccc2[nH]1	·	0.0	22	1	24%	0.3%	14
Cn1cc(C(=O)N/N=C/c2ccc([N+](=O)[O-])cc2)c2ccccc21	·	0.6	-1	-3	-6%	5.5%	-0.7
CCCNC(=O)/C(=C/c1cn(S(=O)(=O)N(C)C)c2ccccc12)NC(=O)c1ccc(OC)cc1	0.8%	-0.3	-17	1	-2%	-0.9%	2.4
CC(C)CCNC(=O)CCCOc1cc(=O)n(C)c2ccccc12	-1.9%	0.2	16	8	3%	0.4%	-1.0
COc1cc2nc(N3CCN(c4cc(C)ccc4C)CC3)nc(N)c2cc1OC	·	-0.4	-2	-11	79µM*	-3.3%	-3.3
CCOc1ccccc1NS(=O)(=O)c1ccc2[nH]c(=O)ccc2c1	-2.8%	-0.3	1	-17	6%	-0.5%	0.1
CCc1noc(C)c1C(=O)OCC(=O)N1CCc2ccccc21	-0.8%	-0.5	-1	-7	·	-1.3%	·
CCOC(=O)c1c(C)[nH]c(C(=O)COC(=O)CNC(=O)C2CCCCC2)c1C	-2.5%	0.0	10	20	11%	0.5%	4.2
COc1ccc(C(OC(=O)c2ccco2)C(=O)NC2CCCC2)cc1 (stereo not drawn)	·	-0.7	?	6	2%	0.4%	-0.3
CCOC(=O)N1CCN(C(=O)C2CCCN(S(=O)(=O)c3cc(C)ccc3OC)C2)CC1 (stereo not drawn)	0.3%	0.2	-20	19	22%	-3.7%[38.3 µM]	1.4
Cc1cccc(C(=O)N(Cc2nc3ccccc3c(=O)[nH]2)C2CCCC2)c1	·	-0.2	0	-21	12%	1.5%	-5.4
COc1ccc2cc(C(C)C(=O)N3CCC(C)CC3)ccc2c1 (stereo not drawn)	·	-0.4	0	25	-8%	1.3%	0.4
O=C(Cn1cc2c(n1)CCCC2)NCc1ccccn1	-5.0%	0.2	6	-8	12%	-5.0%	1.4
Cc1ccc(NC(=O)CSc2nnc(C3CC3)n2CC2CCCO2)c(C)c1 (stereo not drawn)	·	0.3	2	8	3%	-0.2%	1.0
CCCN1CCN(C(=O)C2CCCN(c3ncnc4c3nc3n4CCCCC3)C2)CC1 (stereo not drawn)	0.6%	-1.0	7	-3	8%	-0.2%	·
Cc1ccccc1NC(=O)Cn1c(=O)n(CCCCCC(=O)NCc2ccccc2Cl)c(=O)c2sccc21	-2.0%	3.3	·	-15	·	0.9%	·
O=C(NN=C1CCCCCC1)c1ccncc1	-1.6%	0.3	-8	-4	4%	-0.9%	·
Cc1cccc(C)c1-n1nnnc1C(c1ccnc2ccccc12)N(CCC#N)Cc1ccccc1 (stereo not drawn)	1.2%	0.0	·	·	·	-0.4%	·

By substructure, those above with a furan ring, fused or not
SMILES	ClpP mod	TRPML1 ag	TRPV1 PAM	TRPML1 inh	Sfp inh	PINK1 expr mod	Menin MLL FP FL
CCc1ccc(NC(=O)Cn2c(=O)n(Cc3ccco3)c(=O)c3oc4ccccc4c32)cc1	-0.7%	0.9	·	18	·	0.8%	·
COc1ccc(C(OC(=O)c2ccco2)C(=O)NC2CCCC2)cc1 (stereo not drawn)	·	-0.7	?	6	2%	0.4%	-0.3

The results go on:
SMILES	ClpP mod	TRPML1 ag	TRPV1 PAM	TRPML1 inh	Sfp inh	PINK1 expr mod	Menin MLL FP FL
CNC(=O)c1ccc(CN(C)CC(=O)Nc2ccccc2C(=O)NC2CC2)cc1	-1.0%	4.1	-2	-14	·	-1.7%	·
CCCC(=O)Nc1cccc(NC(=O)c2ccc3c(c2)OCO3)c1	-0.1%	-0.8	3	-6	4%	0.1%	7.9
O=C(Cn1cc(/C=N/O)c2ccccc21)N1CCOCC1	0.9%	0.2	9	-3	16%	-0.4%	-0.7
CCOCCCNc1nc2c([nH]1)c(=O)n(C)c(=O)n2C	1.8%	0.1	3	-9	?	0.9%	-0.7
COc1cccc(NC(=O)COc2coc(CN3CCN(c4ccccc4)CC3)cc2=O)c1	-3.9%	1.7	4	-5	·	6.2%	·
O=C(N1CCCCCC1)n1c(Cc2ccccc2)nc2ccccc21	-0.4%	-1.4	21	6	-7%	-0.2%	-0.2
CCN(c1cccc(C)c1)S(=O)(=O)c1ccc2c(c1)NC(=O)CCS2	-1.0%	0.6&2.0	-7	-1&-9	2%	-0.9%&-1.0%	-6.6
Cn1cnnc1SC1c2cccc3cccc(c23)C1NS(=O)(=O)c1ccc(Cl)cc1 (stereo not drawn)	-4.3%	1.5	-1	20	10%	0.2%	2.9
Cc1nnc(C)n1N	·	-0.1	24	-12	-3%	0.2%	3.5
CC1CCCN(CCCOc2ccc(Br)cc2Cl)C1 (stereo not drawn)	·	-0.1	-7	-3	-21%	2.6%	-2.7
CCCNC(=O)CS(=O)Cc1nc(-c2ccccc2C)oc1C (stereo not drawn)	-1.7%	-0.5	-1	-6	-5%	1.6%	2.2
